Screens deposited in PubChem BioAssay by Southern Research Institute.
Mtb H37Rv – Confirmatory growth inhibition assay against Mycobacterium tuberculosis H37Rv, potency (AID 1949); hit rate 1.6% among 100,000; most inactive calls were filed without a number and no value below 0 was filed; inhibition, % at 10 µg/mL; hits with a dose series show IC50 in µg/mL;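 active means confirmed in a dose series; inconclusive means about 50% or more but not retested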;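 further: bacteria grown 7 days with compound before Alamar blue readout; 0% = untreated bacteria and 100% = reference antibiotic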
The depositor's hits bear a star; i = inactive; ? = inconclusive.

Compound	Mtb H37Rv
O=C(CSc1nnnn1-c1ccccc1)Nc1cc(C(F)(F)F)ccc1N1CCOCC1	i
COc1ccc(S(=O)(=O)N(CC(=O)Nc2ccc(C(F)(F)F)cc2)c2ccccc2)cc1OC	i
CCOCCCNC(=O)c1ccc(OC)c([N+](=O)[O-])c1	i
O=C(Nc1cc2nn(-c3ccccc3)nc2cc1Cl)c1cccs1	i
O=C(Nc1ccc(N2CCN(Cc3ccccc3)CC2)cc1)c1ccccc1F	4%
CC(=O)Nc1ccc(S(=O)(=O)Nc2ccc(OC(F)(F)F)cc2)cc1	i
Cc1nc(Nc2nc3ccccc3c(=O)[nH]2)nc2c(C)cccc12	i
O=C(c1ccc(Cl)c(S(=O)(=O)N2CCCCC2)c1)N1CCN(Cc2ccccc2)CC1	i
CCn1c2ccccc2c2cc(NC(=O)c3ccc([N+](=O)[O-])c(C)c3)ccc21	1%
Cc1cc(C(C)(C)C)ccc1OCCCN1CCOCC1	i
CC(C)(C)c1cc(Cl)c(O)c(NC(=S)NC(=O)c2ccc(Cl)cc2)c1	<0.1µg/mL*
CC1CN(CCCCOc2ccc(Br)cc2Cl)CC(C)O1 (centres undefined)	5%
CCOC(=O)c1c(NC(=O)COc2ccccc2)sc(C(C)=O)c1C	i
CSc1nc(-c2ccco2)nn1C(=O)c1ccco1	i
O=C1CC(C(=O)Nc2ccc3ccccc3c2)C2(CCCCC2)O1 (centres undefined)	i
COc1ccc(CSc2nncn2N)cc1Br	i
Cc1ccc(N(Cc2ccc(C(=O)N(C)Cc3ccccc3)cc2)S(C)(=O)=O)cc1C	3%
COc1ccc2c(Cl)c(C(=O)NC(=S)Nc3ccc(S(=O)(=O)Nc4cc(C)on4)cc3)sc2c1	i
CCn1c(=O)n(CC)c2cc([N+](=O)[O-])ccc21	i
Cc1c(C(=O)NCCCN2CCCC2=O)oc2ccccc12	i
CC(C)Cc1nnc(NC(=O)CCCc2ccccc2)s1	i
CCNC(=O)CN(Cc1cccc(C)c1)S(=O)(=O)c1ccc(C)cc1	i
COC(=O)c1ccc(NC(=O)c2c(NC(=O)CNCc3ccccc3)sc3c2CCC3)cc1	i
CCCOc1ccc(Cn2c(CO)nc3ccccc32)cc1	?

Entries listed so far that contain an aryl methoxy group:
Compound	Mtb H37Rv
COc1ccc(S(=O)(=O)N(CC(=O)Nc2ccc(C(F)(F)F)cc2)c2ccccc2)cc1OC	i
CCOCCCNC(=O)c1ccc(OC)c([N+](=O)[O-])c1	i
COc1ccc(CSc2nncn2N)cc1Br	i
COc1ccc2c(Cl)c(C(=O)NC(=S)Nc3ccc(S(=O)(=O)Nc4cc(C)on4)cc3)sc2c1	i

(next part)
Compound	Mtb H37Rv
O=C(Nc1cccc(C(=O)Nc2ccc(Cl)cc2Cl)c1)c1ccccc1	i
Cc1cc(Cl)ccc1OC(C)C(=O)Nc1nnc(C(C)C)s1 (centres undefined)	5%
O=C(O)CSc1nnc(-c2ccncc2)n1-c1ccc(Cl)cc1	i
COC(=O)c1ccccc1-n1cnc2ccccc2c1=O	i
COc1cc(NC(=O)COc2cccc3ccccc23)c(OC)cc1Cl	i
CCOC(=O)c1ccc(COC(=O)c2ccc3ccccc3c2O)cc1	i
COc1ccc(Cl)cc1C(=O)Nc1cc(F)cc(F)c1	i
CCCC(=O)Nc1ccc(Cl)c(NC(=O)COc2cc(C)ccc2C(C)C)c1	i
CN(C)c1ccc(/C=C(/C#N)c2ccc(C#N)cc2)cc1Br	i
COc1ccc(C2=C(C=O)C(c3ccc(C)cc3)c3ccccc3O2)cc1OC (centres undefined)	i
CC(C)C(=O)Oc1ccc2c(=O)c(Oc3ccccc3Cl)coc2c1	i
N#C/C(=C/c1ccccc1Cl)c1ccc(C#N)cc1	i
Cc1ccc(S(=O)(=O)Nc2nnc(C3CCCCC3)s2)cc1	i
O=C(O)C1C2CCC(O2)C1C(=O)NCc1ccccc1Br (centres undefined)	i
CC1CCCC(N2CCN(C(=O)c3ccc(F)cc3)CC2)C1 (centres undefined)	0%
CCN(CC)CCn1c(NCc2ccncc2)nc2ccccc21	i
CC(=O)Nc1nc(COc2ccc3ccccc3c2)cs1	i
CCCCOc1ccccc1OCCNCCN(C)C	43%
CN1CCN(C(=S)c2ccc(OCc3ccccc3F)cc2)CC1	i
Cc1ccc(NC(=O)C(=O)NCCc2c[nH]c3ccccc23)cc1Cl	i
O=C(COc1cc2oc(=O)c3c(c2cc1Cl)CCCC3)N1CCOCC1	i
C=COCCNC(=O)C(=O)Nc1cc(C)ccc1C	i
C=CCNC(=O)CN(c1ccc(F)c(Cl)c1)S(C)(=O)=O	i
c1ccc(CNc2ncnc3scc(C4COc5ccccc5O4)c23)cc1 (centres undefined)	?
CC(C)Oc1ccc(NC(=O)c2cccs2)cc1	?
Cc1sc(NC(=O)COc2ccccc2C(C)C)c(C(N)=O)c1C	i
Cc1cc(CNC(=O)Nc2ccc(Cl)c(Cl)c2)nn1C	i
O=C1NC(=O)C(=Cc2ccc(OC(=O)c3ccco3)c(Cl)c2)C(=O)N1	8%
COc1ccccc1N(CC(=O)NCC1CCCO1)S(=O)(=O)c1ccccc1 (centres undefined)	i
COc1cc(S(=O)(=O)NCc2ccco2)ccc1Br	2%
COC(=O)CNC(=O)c1cn(-c2ccccc2)nc1-c1cccs1	i
CN(C)C(=O)c1ccccc1C(=O)N(C)C	i
NS(=O)(=O)c1ccc(NC(=O)CCCC(=O)Nc2ccc(S(N)(=O)=O)cc2)cc1	i
O=C(CN1C(=O)c2ccccc2C1=O)NCc1ccc(F)cc1	i
Cc1cc(OCc2nc(-c3ccncc3)no2)cc(C)c1Cl	i
COc1ccc2c(c1)c(=O)oc1cc(OCC(=O)N3CCOCC3)ccc12	i
COc1ccc(-c2nnnn2-c2ccccc2OC)cc1	2%
COc1ccc(C2C3=C(CCCC3=O)Nc3nc4ccccc4n32)cc1OC (centres undefined)	i
CCC(C)c1ccc(NC(=S)Nc2cccc(NC(C)=O)c2)cc1 (centres undefined)	i
O=S(=O)(c1ccc(Cl)cc1)N1CCc2ccccc2C1	i
COc1ccc2nc(SCC(=O)Nc3ccccc3I)[nH]c2c1	i
CS(=O)(=O)N(CC(=O)Nc1cccc(Cl)c1Cl)c1cccc(Cl)c1Cl	i
O=C(Nc1ccccc1Cl)N1CCCCC1c1cccnc1 (centres undefined)	i
O=C(O)c1cccc(-c2ccc(CO)o2)c1	i
O=C(NCc1ccccn1)C(=O)N1CCCC1	i
COC(=O)C1=C(C)NC(=O)NC1c1cc(Br)ccc1OC1CCCC1 (centres undefined)	i
Cc1cc(C)c(S(=O)(=O)N(C)CC(=O)N2CCC(Cc3ccccc3)CC2)c(C)c1	i
N#Cc1nc(-c2ccccc2Cl)oc1N1CCOCC1	i

The closing five records of the part before open the next one.
Compound	Mtb H37Rv
O=C(O)c1cccc(-c2ccc(CO)o2)c1	i
O=C(NCc1ccccn1)C(=O)N1CCCC1	i
COC(=O)C1=C(C)NC(=O)NC1c1cc(Br)ccc1OC1CCCC1 (centres undefined)	i
Cc1cc(C)c(S(=O)(=O)N(C)CC(=O)N2CCC(Cc3ccccc3)CC2)c(C)c1	i
N#Cc1nc(-c2ccccc2Cl)oc1N1CCOCC1	i
CCC(=O)N(Cc1ccc2c(c1)OCO2)C1CC(=O)N(c2ccc(Br)cc2)C1=O (centres undefined)	i
O=C(COc1ccccc1C(=O)NCCNc1ccc([N+](=O)[O-])cc1)NCc1ccco1	i
O=C(NC1CCCCC1)c1ccc(N2CCOCC2)c([N+](=O)[O-])c1	i
CCCNS(=O)(=O)c1ccc(NC(=O)c2ccncc2)cc1	i
O=C(Nc1ccc2oc(-c3ccccc3Cl)nc2c1)c1ccc(N2CCCC2)c([N+](=O)[O-])c1	i
Cc1ccc(C)c(OCCCCN2CCNCC2)c1	i
CC1=C(C(=O)OCc2ccccc2)C(c2cccc(O)c2)NC(=O)N1 (centres undefined)	i
CCc1ccc(NC(=O)c2ccnc(C(C)(C)C)c2)cc1	i
Cc1cc(Cl)c(S(=O)(=O)Nc2ccc(C#N)cc2)cc1OCC(N)=O	i
CCOC(=O)c1c(NC(=O)c2ccco2)sc(C(=O)OC)c1C	5%
Cc1ccccc1OCc1nnc(SCC(=O)O)n1Cc1ccccc1	i
Nc1cc(=O)[nH]c(=S)n1-c1ccccc1	i
Cc1ccc2nc(-c3ccc4c(c3)OCO4)cc(C(=O)NN3CCOCC3)c2c1	2%
COCCSc1nnc(NC(=O)Cc2cccs2)s1	2%
Cc1ccc(S(=O)(=O)Nc2ccc(C(=O)Nc3nccs3)cc2)cc1	i
CC(C)c1ccccc1NC(=O)CN(c1cccc(C(F)(F)F)c1)S(C)(=O)=O	i
CCc1c(C#N)c(N)nc2sc(C(=O)c3ccccc3)c(N)c12	i
CC(C)c1ccccc1OCC(=O)Nc1ccccc1C(N)=O	27%
Cn1c(=O)c2ncn(CC(=O)Nc3ccc4oc(-c5cc(I)ccc5Cl)nc4c3)c2n(C)c1=O	i
COc1cc2c(cc1NC(=O)COC(C)=O)oc1ccccc12	0%
COc1cccc(NC(=O)/C=C/c2ccc(Cl)cc2Cl)c1	1%
Cc1ccc(S(=O)(=O)NCc2ccc(C=O)o2)cc1	i
COC(=O)c1sc(NC(=O)c2csc3c2CCCC3)nc1C	47%
COc1ccc(S(=O)(=O)Nc2ccccc2C(C)C)c(Cl)c1Cl	5%
O=[N+]([O-])c1ccc(N2CCN(CCO)CC2)cc1NCCOc1cccc2ccccc12	2.8µg/mL*
COCC(C)NS(=O)(=O)c1ccc(NC(C)=O)cc1 (centres undefined)	i
O=C(Oc1ccc(Br)cc1C(=S)N1CCOCC1)c1cc(Cl)ccc1Cl	i
Cc1ccc(SCc2cc(=O)c3c(=O)n(-c4ccccc4)[nH]c3[nH]2)cc1	i
COCCNC(=O)COc1ccc(C(C)(C)C)cc1Br	1%
CC(=O)c1ccc(NC(=O)Cn2cnc3c(=O)n(C)c(=O)n(C)c32)cc1	i
O=C(CSc1nccc(=O)[nH]1)Nc1cccc(I)c1	i
CCOC(=O)C1C(=O)CC(=O)CC1CC(C)SCC (centres undefined)	i
Cc1ccc(CNC(=O)CN(Cc2ccc(F)cc2)S(=O)(=O)c2ccccc2)cc1	i
CCc1nnc(NC(=O)c2sc3nc(C)cc(C)c3c2N)s1	i
O=C(O)c1cc(NC(=O)c2ccc(Br)o2)cc(C(=O)O)c1	i
COc1ccc(CSc2nc3sc(C)c(C)c3c(=O)n2-c2ccccc2)cc1	i
COc1ccc(Cl)cc1C(=O)Nc1sc2c(c1C(N)=O)CCCC2	i
Cc1cc(C)cc(OCC(=O)Nc2ccc(N3CCN(C)CC3)cc2)c1	i
OCCN1CCN(CC(O)COc2ccc(Cl)cc2Cl)CC1 (centres undefined)	i
COc1ccc(N(CC(=O)Nc2cccc(C)c2C)S(C)(=O)=O)cc1OC	3%
O=C(Nc1cccnc1)c1cc(Cl)cc(Cl)c1	i
COc1ccc(C2(C(=O)Nc3ccc(C(=O)NCc4ccco4)cc3)CCOCC2)cc1	i
CCOc1cc(CNc2ccc(NC(=O)c3ccccc3)cc2)ccc1OCC(=O)NC(C)(C)C	i
CC(=O)c1ccc(NC2=NS(=O)(=O)c3ccccc32)cc1	i
COC(=O)c1c(N2C(=O)CC(Sc3ccccc3C(=O)O)C2=O)sc(C)c1C (centres undefined)	i
CCN(CC)CCCNC(=O)c1cc2cc(Br)cc(OC)c2oc1=O	i
Cc1cc2c(s1)CCCCC(=O)N2	i
Cc1cc2oc(C(=O)Nc3ccc(C(F)(F)F)cc3[N+](=O)[O-])c(C)c2cc1C	i
CC(C)(C)n1cnc2cc(NS(=O)(=O)c3ccccc3)ccc21	i
CCn1c(=O)n(CC)c2cc(S(N)(=O)=O)c(C)cc21	i
O=C(CN1C(=O)c2ccccc2S1(=O)=O)Nc1ccccc1C(=O)NCc1ccco1	i
Cc1ccc(S(=O)(=O)N2CCN(C(=O)c3ccccc3Cl)CC2)cc1C	i
COC(=O)Cc1c(C)c2ccc(OCc3ccc(Br)cc3F)c(C)c2oc1=O	i
COc1ccc(NC(=O)c2c(NC(=O)CN3CCCC(C)C3)sc3c2CCC3)cc1 (centres undefined)	i
C=CCn1c(SCC(=O)NC2CCCCC2)nc2ccccc2c1=O	i
O=C(Nc1ccccc1C(=O)NC1CCCCC1)NC1CCCCC1	i
Cn1c(=O)c2c(nc(Oc3ccccc3Cl)n2Cc2cccc(C(F)(F)F)c2)n(C)c1=O	i
Nc1ccc(C(=O)NCc2ccccc2)cc1	i
C=CCNC(=S)NC(=O)c1cc2c(C)nn(-c3ccccc3)c2s1	i
CC(C)c1ccc(S(=O)(=O)NC(CC(=O)O)c2ccccc2)cc1 (centres undefined)	i

Going on with the list.
Compound	Mtb H37Rv
C=CCn1c(SCC(=O)Nc2c(C)cc(Br)cc2C)nnc1-c1ccc(OC)cc1	i
COc1ccc(C(=O)NC(=S)Nc2ccc(S(=O)(=O)NCCc3ccccc3)cc2)cc1Br	47%
CCOC(=O)C1CCN(C(=O)CN(c2ccc(I)cc2)S(C)(=O)=O)CC1	i
COc1ccccc1CNC(=O)c1cccc(C)c1[N+](=O)[O-]	2%
COc1ccccc1N1C(=O)NC(=O)C(CCc2ccncc2)(Cc2cccc3ccccc23)C1=O (centres undefined)	i
Cc1n[nH]c(C)c1N1C(=O)c2cccc3cc(Br)cc(c23)C1=O	i
CCn1c(SCc2ccccc2F)nnc1-c1ccccn1	2%
Cc1cccc(S(=O)(=O)Nc2ccc(F)c(Cl)c2)c1	i

Some of the compounds tested. The share of hits here may be higher or lower than overall.
